HSV replic up: HSV replication enhancement. hit rate 0.005% among 220,000. maximum fold increase. AID 1956. HSV replication augmentation in cells, fold increase;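 active = peak rise of 1.5-fold or more in the series; inconclusive = self-fluorescent or not available for retest; tested in PC3 cells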;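 also: first round at 10 µM; read as green reporter fluorescence; hits show the peak of a series up to 25 µM; 1 = signal of infected wells without compound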
Insulin prom inh: TRM-6 insulin promoter activity inhibition. TRM-6 cells (human fetal islet line), insulin promoter-eGFP reporter, imaging; reporter expression induced with tamoxifen. inhibition, % at 2 µM. hit rate 0.9% among 130,000. AID 1273;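 active = inhibition above the mean plus 3 SD, with well images judged a real hit on visual review, cut at about 60% in these data, passing the limit was not always enough; inconclusive = inhibition over the cutoff but images rejected on review; inactive = inhibition not above the cutoff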
RGS16-Gao HTS: modulates binding between human RGS16 and Galphao; bead-based flow cytometry RGS16-Galphao binding, fluorescence; actives lie on both sides; binding response (% of control), % at 10 µM; hit rate 0.38% among 220,000; AID 1441;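 active = below 25% or above 175%, edge rows of some plates excepted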;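 also: Galphao activated by GDP with aluminum fluoride before binding; 100% = wells without compound and 0% = beads without RGS; some results beyond the cut were filed as inactive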
Target sequence (O15492 whole entry, looked up): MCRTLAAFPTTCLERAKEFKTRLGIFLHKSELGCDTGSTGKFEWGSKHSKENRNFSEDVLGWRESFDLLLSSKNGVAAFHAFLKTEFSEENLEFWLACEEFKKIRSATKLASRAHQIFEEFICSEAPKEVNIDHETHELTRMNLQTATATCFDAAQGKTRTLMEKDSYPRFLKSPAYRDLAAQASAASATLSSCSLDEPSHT
Target sequence (P09471 whole entry, looked up): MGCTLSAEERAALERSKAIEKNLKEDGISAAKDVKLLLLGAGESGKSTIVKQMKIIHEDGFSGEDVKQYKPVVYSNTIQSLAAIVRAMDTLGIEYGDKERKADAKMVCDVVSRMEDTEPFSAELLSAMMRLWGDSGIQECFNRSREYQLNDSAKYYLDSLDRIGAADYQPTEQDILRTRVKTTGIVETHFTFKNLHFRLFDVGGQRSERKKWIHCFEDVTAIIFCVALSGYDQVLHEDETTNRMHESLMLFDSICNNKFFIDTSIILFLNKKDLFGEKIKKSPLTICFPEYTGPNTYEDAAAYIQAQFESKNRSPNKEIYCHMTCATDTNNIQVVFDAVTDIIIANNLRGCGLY
GALR2 ag: activates the human galanin receptor 2; GALR2-expressing cells, agonist activation read-out; activation, %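 (tested at 5 µM)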; AID 803; hit rate 0.48% among 140,000; O43603;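 active = above mean plus 3 SD of all compounds, about 5% in these data, not always enough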;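 also: 0% = vehicle buffer wells and 100% = reference agonist at full effect; tested in CHO reporter cells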
Target sequence (O43603 whole entry, looked up): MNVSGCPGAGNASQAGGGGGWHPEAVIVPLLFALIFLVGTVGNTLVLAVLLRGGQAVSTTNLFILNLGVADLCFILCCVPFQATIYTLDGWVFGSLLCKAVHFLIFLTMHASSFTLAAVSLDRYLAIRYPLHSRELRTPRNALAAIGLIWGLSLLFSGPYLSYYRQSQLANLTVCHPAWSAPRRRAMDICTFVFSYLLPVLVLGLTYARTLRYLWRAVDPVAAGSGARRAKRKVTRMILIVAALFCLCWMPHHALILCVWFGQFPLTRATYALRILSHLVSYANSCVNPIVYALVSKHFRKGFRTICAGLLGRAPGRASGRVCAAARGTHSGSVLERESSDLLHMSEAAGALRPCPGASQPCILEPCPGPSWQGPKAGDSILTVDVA
PKD1 inh: inhibitors of human PKD1 kinase. PKD1 kinase fluorescence polarization assay. hit rate 0.056% among 200,000. Q15139. inhibition, %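 (about 10 µM by stock and volumes)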;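 active = inhibition of 50% or more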;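 also: controls were vehicle for no effect and a reference inhibitor for full effect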
Insulin prom inh cell count: further read-out of Insulin prom inh, marked with its call; normalized cell count, %; measured here: cell count, toxicity; reference of the scale not given here;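 cells exposed to compound for 48 h; stained nuclei by imaging scaled within each plate; lower means fewer cells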
HSV replic up primary fold: further read-out of HSV replic up, marked with its call; fold increase; compound at 10 µM; measured here: primary screen fold increase 10 uM; tested in PC3 cells;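 GFP signal in the first replicate; 1 = infected wells without compound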
Numbers without * were called inactive; i = inactive; u = inconclusive; x = no result given.

nr	structure	HSV replic up	HSV replic up primary fold	Insulin prom inh	Insulin prom inh cell count	RGS16-Gao HTS	GALR2 ag	PKD1 inh
1	O=C(c1cc2ccccc2oc1=O)N1CCSC1c1ccco1 (stereo not drawn)	i	0.7	8	143	94	-3.5	-7
2	O=C1NC2(CCCc3ccccc32)C(=O)N1Cc1nnc(-c2ccccc2Br)o1 (stereo not drawn)	i	0.92	-14	65	100	-1.2	15
3	CCN(CC)CCNC(=O)C1CCC(=O)N(c2ccc(OC)cc2)C1c1ccc(F)cc1 (stereo not drawn)	i	0.87	-87	62	103	-2.5	-38
4	COc1cccc(N2CCN(C(=O)CN(C)S(=O)(=O)c3ccc4c(c3)c(=O)n(C)c(=O)n4C)CC2)c1	i	0.99	-14	123	101	x	-10
5	CCOC(=O)c1c(-c2ccc(C)cc2)csc1NC(=O)/C(C#N)=C/c1ccc(O)c(OC)c1	u	x	-167	130	94	-1.8	-9
6	CCn1c(COc2ccc(=O)n(-c3ccccc3)n2)nnc1SCc1ccccc1C	i	0.81	x	x	136	-1.2	6
7	O=C(Nc1cccc(Cl)c1)Nc1ccnc(-c2cccnc2)n1	i	0.96	x	x	96	x	2
8	ClC1(Cl)CC1Cn1c(C2CC2)nc2ccccc21 (stereo not drawn)	i	0.98	-41	38	148	x	-7

The last 3 entries of the part before lead into the next:
nr	structure	HSV replic up	HSV replic up primary fold	Insulin prom inh	Insulin prom inh cell count	RGS16-Gao HTS	GALR2 ag	PKD1 inh
6	CCn1c(COc2ccc(=O)n(-c3ccccc3)n2)nnc1SCc1ccccc1C	i	0.81	x	x	136	-1.2	6
7	O=C(Nc1cccc(Cl)c1)Nc1ccnc(-c2cccnc2)n1	i	0.96	x	x	96	x	2
8	ClC1(Cl)CC1Cn1c(C2CC2)nc2ccccc21 (stereo not drawn)	i	0.98	-41	38	148	x	-7
9	Cc1ccc(NC(=O)CSc2nnc(CNC(=O)c3ccccc3F)o2)cc1	i	1	-13	92	103	x	2
10	Cc1ccccc1Nc1nc2ccccc2n1C(C)C	i	0.97	10	116	97	0.2	4
11	O=C(O)c1ccccc1N1C(=O)C2C3CCC(C3)C2C1=O (stereo not drawn)	i	0.99	-50	105	97	x	-4
12	CC(C)(C)SCCNC(=O)CSCc1ccc([N+](=O)[O-])cc1	x	x	10	149	105	-2.0	-9
13	CN(CC(=O)Nc1ccc(C(N)=O)cc1)CC(=O)Nc1ccccc1Cl	i	0.93	35	112	111	0.4	-5
14	COCCCn1c(Cc2ccccc2)nnc1SCC(=O)N1CCCCC1	i	0.94	x	x	164	-0.8	-3
15	CC1(C)Oc2ccc(C(=O)N3CCOCC3)cc2N(CC(=O)Nc2ccccc2)C1=O	i	0.8	x	x	87	-1.9	4
16	O=C(c1ccc([N+](=O)[O-])cc1)N1CCSC1c1ccc(Br)cc1 (stereo not drawn)	i	1	-46	165	87	x	0
17	Cc1ccc(NC(=O)c2ocnc2C)cc1Cl	i	1.1	-57	124	87	0.2	-8
18	FC(F)(F)c1cc(N2CCNCC2)c2ccccc2n1	i	0.93	x	x	95	x	x
19	COc1ccccc1NC(=O)CSc1nc2ncccc2[nH]1	i	1	-30	100	100	0.0	4
20	O=C(CSc1nnnn1Cc1ccccc1)c1ccc(F)cc1	i	0.91	x	x	100	x	x
21	CCCCCNc1nc2sc3c(c2c(=O)n1-c1cccc(Cl)c1)CCN(C)C3	i	1.1	x	x	99	x	x
22	O=C(NNc1c(Cl)cc(Cl)cc1Cl)c1n[nH]c(=O)c2ccccc12	i	0.95	x	x	99	x	x
23	COc1cccc(NC(=O)c2ncn[nH]2)c1	i	1.1	45	133	99	-1.8	13
24	O=C(NCCN1CCc2ccccc2C1)C1CCN(S(=O)(=O)N2CCC3(CC2)OCCO3)CC1	i	0.98	-16	116	97	-1.3	-16
25	Cn1cccc1/C=C1\SC(=Nc2ccc(O)cc2)NC1=O	i	0.75	x	x	93	x	x
26	COc1ccccc1C(=O)NNC(=O)c1ccc(NC(=O)CC(C)C)cc1	i	0.95	x	x	109	x	-1
27	CSc1nc(N(C)NC(=O)c2ccc(Cl)cc2)c2ccccc2n1	i	0.92	-38	12	98	-1.9	7
28	COc1ccccc1CN1CCN(Cc2nc(-c3cccs3)no2)CC1	i	1	x	x	97	x	-3
29	N=C(N)N1CCc2ccccc21	i	0.99	x	x	107	x	x
30	O=C(CN1C(=O)/C(=C/c2ccccc2F)Sc2ccccc21)NCc1cccnc1	i	0.91	-7	75	92	x	-3
31	Cn1cc(CNC(=O)c2cc(-c3ccccc3)nc3ccc(Br)cc23)cn1	i	1.1	-88	63	98	-2.4	-4
32	Cc1ccc(Nc2nc3ccccc3s2)cc1	i	0.88	38	69	125	-0.7	-5

3 compounds from above, ordered by their value in GALR2 ag, low to high.
cpd | molecule | HSV replic up | HSV replic up primary fold | RGS16-Gao HTS | GALR2 ag | PKD1 inh
31 | Cn1cc(CNC(=O)c2cc(-c3ccccc3)nc3ccc(Br)cc23)cn1 | i | 1.1 | 98 | -2.4 | -4
27 | CSc1nc(N(C)NC(=O)c2ccc(Cl)cc2)c2ccccc2n1 | i | 0.92 | 98 | -1.9 | 7
32 | Cc1ccc(Nc2nc3ccccc3s2)cc1 | i | 0.88 | 125 | -0.7 | -5

Carrying on.
nr	structure	HSV replic up	HSV replic up primary fold	Insulin prom inh	Insulin prom inh cell count	RGS16-Gao HTS	GALR2 ag	PKD1 inh
33	COc1ccccc1NC(=O)CN1CCN(c2ccccc2)CC1	i	0.88	x	x	99	x	-1
34	O=C(c1ccc(CS(=O)(=O)c2ccc(Br)cc2)o1)N1CCOCC1	i	0.97	x	x	106	-3.5	-12
35	Cc1cc(C)n(-c2ccc(C(=O)OCC(=O)Nc3cc(Cl)ccc3[N+](=O)[O-])cc2)n1	i	1	4	34	80	-0.8	-7
36	Cc1csc(NC(=O)CSc2nc3sc(C)c(C)c3c(=O)[nH]2)n1	i	0.92	33	81	97	-1.9	17
37	COc1cc(C(c2nnnn2C2CCCC2)N2CCc3ccccc3C2)ccc1O (stereo not drawn)	i	0.94	x	x	102	-0.3	-8
38	COc1cc(/C=C2\Oc3cc(O)ccc3C2=O)ccc1O	u	x	x	x	100	x	x
39	Cc1cc(N2C(=O)c3ccccc3C2=O)n(C)n1	i	1.2	x	x	92	x	x
40	O=C(Nc1cccc(-c2nnn(CC(=O)N3CCc4ccccc4C3)n2)c1)C1CCC1	i	0.75	-30	121	98	-1.4	1
41	Cc1nc(NCCCO)c(C#N)c2c1COC(C)(C)C2	i	0.97	0	95	97	2.2	-2
42	S=c1nc(-c2sccc2OCc2ccc(Cl)cc2Cl)[nH][nH]1	i	1.1	x	x	93	x	4
43	O=C(CCc1ccccc1)NNC(=S)NC(=O)c1ccc(Cl)cc1	i	0.92	43	102	98	-2.2	-5
44	N=c1c(C(=O)NCc2ccco2)cc2c(=O)n3ccccc3nc2n1CC1CCCO1 (stereo not drawn)	i	0.91	-8	100	x	2.0	-2
45	CN(C)c1cccc2c1c(NC(=O)Nc1ccc(F)cc1F)nn2C	i	1	x	x	99	x	x
46	CCOc1ccccc1NC(=O)Cn1nnc(C(=O)NCc2ccco2)c1N	x	x	-192	13	106	3.4	-5
47	Cn1cnnc1SCC(=O)c1cc2ccccc2oc1=O	i	0.97	30	106	97	-0.2	5
48	O=C(C1=C(Nc2ccccc2)c2ccccc2S(=O)(=O)N1)c1ccccc1	i	1	9	111	104	-1.2	2
49	CC(C)(C)NC(=O)c1ccc(Cn2cc(C(F)(F)F)ccc2=O)cc1	i	0.92	x	x	102	x	-9
50	CC(C)NC(=O)Cc1ccc(Br)cc1	i	1	-26	73	98	-2.2	4
51	O=C(OC(C(=O)NC1CCCC1)c1ccc(F)cc1)c1ccno1 (stereo not drawn)	i	1	33	121	102	-1.9	-11
52	S=C(NCc1ccc(Cl)c(Cl)c1)Nc1ccc2c(c1)OCO2	x	x	x	x	108	-0.8	7
53	COc1ccc(CCNC(=O)CCNC(=O)c2ccc(Cl)cc2)cc1OC	i	0.99	x	x	103	-0.6	-9
54	CCOC(=O)C(Cc1c(F)cccc1Cl)c1ccno1 (stereo not drawn)	i	1	-10	99	108	x	-6
55	CCOC(=O)c1ccc2[nH]c3c(c2c1)CCCCC3=O	i	0.91	-36	201	104	-0.8	7
56	O=C(CNCc1cccs1)NC12CC3CC(CC(C3)C1)C2	i	0.95	-115	97	99	x	6
57	COc1ccccc1NC(=O)N1CCCC1C(=O)NCC1CCCO1 (stereo not drawn)	i	0.97	-63	154	97	x	3
58	CC(SCc1ccccc1)C(=O)Nc1ccc2c(c1)OCO2 (stereo not drawn)	i	0.8	-6	183	102	-1.9	2
59	Cc1nc(SCC(=O)c2ccccc2)c([N+](=O)[O-])[nH]1	i	1.1	-8	133	106	-2.5	1
60	COc1cc(/C=C(\C#N)c2nc3c(s2)CC(C)CC3)ccc1O (stereo not drawn)	u	x	-62	186	81	2.9	-12
61	O=C1CCC(C(=O)N(Cc2cccs2)C2(C(=O)NC3CCCCC3)CCCCC2)N1 (stereo not drawn)	i	1	-47	89	102	x	-1
62	CC1=NNC(=O)C1CCC(=O)N/N=C(/C)c1ccc([N+](=O)[O-])cc1 (stereo not drawn)	i	0.98	26	122	119	0.2	-2
63	CCOC(=O)CN(C#N)c1nc(C)cc(C)n1	i	0.93	32	96	101	-2.5	-10
64	C=CCc1cccc(/C=N/n2c(C)nnc2C)c1O	i	1.1	0	164	102	0.9	9
65	Cc1cc(C(=O)CSc2cccc[n+]2[O-])c(C)n1-c1ccc(Br)cc1	i	1	x	x	100	x	-2
66	COc1ccc(CCNC(=O)CSc2nc(-c3ccc(OC)c(OC)c3)ccc2C#N)cc1	i	0.84	x	x	98	1.6	-3
67	CCOCC(=O)Nc1ccc([N+](=O)[O-])cc1Cl	i	0.93	33	140	101	x	-6
68	CCOc1ccc(Br)cc1S(=O)(=O)N1CC(C)OC(C)C1 (stereo not drawn)	i	1	43	121	105	-1.3	-8
69	O=C(COC(=O)c1ccc(CSc2ccc(Cl)cc2)cc1)Nc1ccccc1	i	0.86	x	x	101	-0.4	-18
70	CCn1c(SCC(=O)c2cc(C)n(-c3ccc(C(=O)OC)cc3)c2C)nnc1-c1cccnc1	i	1.1	-10	123	101	-1.2	-10
71	Cc1ccc(C)c(NC(=S)NNC(=O)c2csc3c2CCCC3)c1	i	0.94	11	121	108	-0.9	-1
72	COC(=O)CCCNS(=O)(=O)c1ccc2ccccc2c1	i	1	-94	92	104	-1.1	7
73	C[C@@H]1NC(=O)c2cc([N+](=O)[O-])cc(I)c2NCCCC[C@@H](C(N)=O)NC(=O)[C@H](CCC(=O)O)NC1=O	i	0.95	-59	142	104	-0.8	-3
74	C=CCN(CC=C)C(=O)c1ccc(OC2CCN(S(=O)(=O)N(C)C)CC2)cc1	i	0.95	x	x	106	x	-2
75	CC(=O)Nc1ccc(N2C(=O)CSC2c2cccc([N+](=O)[O-])c2)cc1 (stereo not drawn)	i	0.93	x	x	96	x	-4
76	O=C(COC(=O)CCc1c[nH]c2ccccc12)NCc1ccccc1	i	0.97	24	75	107	-1.4	6
77	Nc1nnc(SCc2ccc([N+](=O)[O-])cc2)s1	i	0.9	13	82	100	x	-3
78	O=C(O)C(c1ccccc1)N1CCCCC1 (stereo not drawn)	i	0.95	-39	160	98	x	-10
79	COc1ccc(S(=O)(=O)N2CCCOC2CNC(=O)C(=O)NCc2ccco2)cc1C (stereo not drawn)	i	0.68	-6	48	100	x	-5
80	COc1c(Cl)cc(Cl)cc1/C=N/n1cnnc1	i	0.76	50	85	102	-1.5	-10
81	CCc1c(C)nc2ncnn2c1N1CCN(S(=O)(=O)c2ccc(OC)cc2)CC1	i	0.99	-38	84	98	x	-7
82	O=C(NCCc1ccccn1)c1n[nH]c(=O)c2ccccc12	i	1	x	x	101	-1.4	1
83	COc1cc2c(cc1OC)C(Nc1ccc(S(N)(=O)=O)cc1)=NC(C)(C)C2	i	1	-29	82	98	-0.6	-5
84	C/C(=N\Nc1ccc(Cl)c(C(=O)O)c1)c1ccccn1	i	0.93	x	x	87	x	x
85	NC(=O)c1ccc(Oc2ccc3ccc(=O)oc3c2)c([N+](=O)[O-])c1	i	0.86	x	x	108	x	-1
86	Cc1cccc(CSc2ncnc3c2cnn3Cc2ccccc2)c1	i	0.93	34	126	99	-1.7	-5
87	CCC(C)(C)C1CCC(=NNC(=O)c2ccoc2C)CC1 (stereo not drawn)	x	x	-70	99	101	-0.7	-5
88	O=C(CNC(=O)c1ccc(Cl)cc1Cl)Nc1ccc(F)cc1	i	0.9	x	x	100	x	x
89	COc1ccc(-c2noc(CCC(=O)NCc3cccnc3)n2)cc1OC	i	1.1	0	152	99	-0.6	5

Compound activity: PubChem BioAssay, several laboratories
